Screens: PubChem BioAssay, National Center for Advancing Translational Sciences (NCATS)
VDR inh – Inhibitors of the vitamin D receptor (VDR): qHTS. VDR-SRC2-3 peptide fluorescence polarization, 2 h. Potency, µM, inactives show max response, negative = inhibition, usual class: inhibitors. 0.93% of 400,000 active. AID 504847, 2011. Vitamin D3 receptor (Homo sapiens), P11473; active = well fitted inhibition curve with a large enough effect; inconclusive = small, poorly fitted or top-dose-only effect, or another doubt; inactive = no such curve, though single readings can be large or run the other way; note: series mostly up to about 120 µM
Target sequence (P11473 whole entry, looked up): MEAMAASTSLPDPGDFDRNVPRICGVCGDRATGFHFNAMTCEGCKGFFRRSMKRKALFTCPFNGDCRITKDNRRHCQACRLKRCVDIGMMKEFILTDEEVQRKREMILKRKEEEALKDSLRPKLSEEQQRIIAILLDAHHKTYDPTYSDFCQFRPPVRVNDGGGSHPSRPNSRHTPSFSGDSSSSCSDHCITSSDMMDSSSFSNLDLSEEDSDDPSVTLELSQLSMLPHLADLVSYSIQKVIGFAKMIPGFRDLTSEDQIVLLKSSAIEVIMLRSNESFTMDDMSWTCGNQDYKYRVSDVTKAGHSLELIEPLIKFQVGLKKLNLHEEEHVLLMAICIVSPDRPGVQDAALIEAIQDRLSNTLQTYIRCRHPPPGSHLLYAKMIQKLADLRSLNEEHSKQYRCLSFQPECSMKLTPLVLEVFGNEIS
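Fluorescence polarization assay measuring small-molecule disruption of VDR binding to the coregulator peptide SRC2-3. Compounds were pin-transferred (23 nl) into the reagent mix and incubated 2 h at room temperature before reading.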
* marks the source's active call; other numbers are inactive results; u = inconclusive; & = joins results of further samples; [ ] = remark or other dose. % is set by controls: 0 for no effect and ±100 for the full control effect; potency is the fitted concentration of half-maximal effect. These rows are one share of the data; the hit share may differ from the screen's.

SMILES	VDR inh
CCOP(=O)(OCC)c1nc(-c2ccc(OC)cc2)oc1N1CCOCC1	13.5%
C=CCOc1ccccc1CNCc1cccnc1	17.8%
Cc1ccc(C)c(S(=O)(=O)NCCOC(=O)Nc2sc(=S)n(C)c2C)c1	-14.8%
Cc1cccc(C(=O)N2CCN(Cc3ccc4c(c3)OCO4)CC2)c1	-19.5%
COc1cc(Br)c(/C=C(\C#N)c2nc3ccccc3[nH]2)cc1OC	-11.8%
Cn1ccnc1SCC(=O)Nc1nc2c(F)c(F)c(F)cc2s1	-0.3%
NS(=O)(=O)c1ccc(NC(=S)NC(=O)C2CCCCC2)cc1	13.6%
CNC(=O)C1CCN(C(=O)N2CC(C)Oc3ccc(C)cc32)CC1 (stereo not drawn)	19.0%
COc1ccc(CCNC(=O)CN2C(=O)NC3(CCCCC3)C2=O)cc1	-4.4%
CN(C)CCNC(=O)c1cc(Br)ccc1Cl	2.2%
C=CC(=O)N=c1sc2ccccc2n1-c1ccccc1	0.4%
Cc1oc(-c2ccc(C(=O)NC(C)c3ccccc3)cc2)nc1CS(=O)(=O)c1ccccc1 (stereo not drawn)	9.2%

Some values from the results shown.
For VDR inh, Cc1oc(-c2ccc(C(=O)NC(C)c3ccccc3)cc2)nc1CS(=O)(=O)c1ccccc1 (stereo not drawn) is entered as 9.2%
For VDR inh, C=CCOc1ccccc1CNCc1cccnc1 is entered as 17.8%
For VDR inh, Cn1ccnc1SCC(=O)Nc1nc2c(F)c(F)c(F)cc2s1 is entered as -0.3%
For VDR inh, COc1cc(Br)c(/C=C(\C#N)c2nc3ccccc3[nH]2)cc1OC is entered as -11.8%

Other entries.
SMILES	VDR inh
CCCN1CCC(N2CCCC(C(=O)O)C2)CC1 (stereo not drawn)	-12.2%
Cc1cccc(NC(=O)C2CCCN2S(=O)(=O)c2ccc3c(c2)n(C)c(=O)c(=O)n3C)c1 (stereo not drawn)	-4.7%&-15.3%
CCOC(=O)c1[nH]c(C)c(CCC(=O)Nc2cccc(C(F)(F)F)c2)c1C	8.3%
Cc1ccc(C(=O)OCC(=O)NN2C(=O)NC3(CCC(C)CC3)C2=O)cc1 (stereo not drawn)	0.5%
CCOc1ccc(S(=O)(=O)Nc2cccc(C(=O)N3CCN(c4ccccc4O)CC3)c2)cc1	11.8%
Cc1nn2c(-c3ccncc3)ccnc2c1Br	-8.8%
O=C(COc1cccc2c1CCNC2=O)NC1CCCCC1	-4.7%
CC(=O)c1ccc(N2CCN(CCC#N)CC2)c(F)c1	14.1%
CC1CCN(C(=O)Nc2ccc3nsnc3c2)CC1	-2.3%
COc1ccccc1NC(=O)N(Cc1ccco1)Cc1cc2c(C)ccc(C)c2[nH]c1=O	4.6%
COCCN(CC(=O)NCc1ccc(F)cc1)C(=O)CCC(=O)Nc1nccs1	-10.1%
CCOC(=O)c1cc2c(ccc3nc(C)c(C)c32)[nH]c1C	-0.6%
Cc1ccc(C(=O)Nc2ccc(S(=O)(=O)N3CCN(C)CC3)cc2)cc1	1.1%
Cc1ccc(C)c(NC(=O)CSc2nc3ccccc3nc2N2CCOCC2)c1	-26.4%&-16.3%
C=CCNC(=O)/C(=C\c1ccc2c(c1)OCO2)NC(=O)c1ccc(Br)cc1	-9.5%
O=C(NCCN1CCC(Cc2ccccc2)CC1)C1CCCN(S(=O)(=O)c2cnc[nH]2)C1 (stereo not drawn)	-9.3%
CC(C)CCOc1ncnc2c1sc1nc3c(cc12)CSC(C)(C)C3	-14.0%
O=C1CC(N2CCN(C3CCc4ccccc4C3)CC2)C(=O)N1c1ccccc1 (stereo not drawn)	12.0%
CC1CN(C)C(C)CC1OC(=O)C(c1ccccc1)c1ccccc1 (stereo not drawn)	-11.2%
CCCCCC1CCC(C(=O)NNC(=S)NCC)CC1 (stereo not drawn)	-7.6%
Cn1c(=O)[nH]c2c(cnn2C)c1=O	-27.3%
CCN1CCN(C(=S)c2ccc(Br)cc2)CC1	u
Cn1cc([N+](=O)[O-])c(C(=O)NC2CCCC2)n1	5.3%
CC(=O)Nc1cccc(-n2nnc(SCC(=O)Nc3ccccc3)n2)c1	5.7%

Some of these compounds in order of length of the SMILES, low to high:
SMILES	VDR inh
CCN1CCN(C(=S)c2ccc(Br)cc2)CC1	u
Cn1cc([N+](=O)[O-])c(C(=O)NC2CCCC2)n1	5.3%
Cc1ccc(C(=O)Nc2ccc(S(=O)(=O)N3CCN(C)CC3)cc2)cc1	1.1%

Next structures follow:
SMILES	VDR inh
Cc1ccc(/C=C2/C(=O)C3(C)CCC2C3(C)C)cc1 (stereo not drawn)	-5.4%
CCOc1ccc(N=C2NC(=O)S/C2=C\c2ccc(O)cc2)cc1	0.7%
O=C1C(Oc2ccc(Cl)cc2)C(c2ccc3c(c2)OCO3)N1CC1CCCO1 (stereo not drawn)	-5.9%
Nc1nc(-c2ccco2)nc(N2CCCCC2)n1	8.4%
COc1cccc(OC)c1C(=O)N1CCNCC1	-12.1%
CCc1nc2ccccc2c(C(=O)Nc2ccc(C)cc2)c1C	0.5%
CC1=CCC(C(=O)O)C(C(=O)Nc2nc3ccc(S(C)(=O)=O)cc3s2)C1 (stereo not drawn)	-7.7%
CCOc1ccc(CCNC(=O)CN(c2ccc(C)cc2)S(=O)(=O)N(C)C)cc1OCC	19.4%
CN(C(=O)COc1ccc(Cl)cc1Cl)c1nnc(C23CC4CC(CC(C4)C2)C3)s1	3.0%
Cc1cc([N+](=O)[O-])c(C)cc1-c1ccc(/C=N/n2cnnc2)o1	-1.1%
C[C@H](NS(=O)(=O)OCC(Cl)(Cl)Cl)C1CC1c1ccccc1 (stereo partly drawn)	-9.5%
COc1ccc(C(=O)N(C)CCCC2CCCC2)cc1OC1CCN(C(C)=O)CC1	-17.6%
Cc1ccc(OCC(=O)O/N=C(\N)c2ccncc2)c(C)c1	-9.8%
NC(=O)c1ccc(NC(=O)COC(=O)CCc2ccc(S(=O)(=O)N3CCCCC3)cc2)cc1	-16.7%
O=C(Cn1nc(-c2ccccc2)ccc1=O)NCC1COCCO1 (stereo not drawn)	6.5%
O=[N+]([O-])c1csc2ccccc12	-0.8%
O=C(CN1CCC(n2nnc3cc(C(F)(F)F)ccc32)CC1)N1CCc2ccccc21	0.9%
O=C(COC(=O)c1ccc2ncsc2c1)NCc1ccc(Cl)cc1	-8.7%
CN(Cc1ccccc1)C(=S)Nc1ccc(OC(F)F)cc1	6.6%
COCCCNC(NC(=O)c1ccc(Cl)cc1)C(Cl)(Cl)Cl (stereo not drawn)	-2.0%
O=S(=O)(c1ccc(N2CCCC2)cc1)C(F)(F)F	3.9%
CC(O)c1ccc(Oc2cnccn2)cc1 (stereo not drawn)	-12.6%
CCOc1ccc(NC(=O)CSc2nnnn2C2CCCC2)cc1	3.5%
COC(=O)C1=C(C(=O)c2ccc(C)cc2)C(c2ccc(OC)c(OC)c2)n2nnnc2N1 (stereo not drawn)	-10.4%

Part of the list above, with values ahead of the structure:
| VDR inh | structure |
| --- | --- |
| 3.5% | CCOc1ccc(NC(=O)CSc2nnnn2C2CCCC2)cc1 |
| -16.7% | NC(=O)c1ccc(NC(=O)COC(=O)CCc2ccc(S(=O)(=O)N3CCCCC3)cc2)cc1 |
| 3.9% | O=S(=O)(c1ccc(N2CCCC2)cc1)C(F)(F)F |
| 6.6% | CN(Cc1ccccc1)C(=S)Nc1ccc(OC(F)F)cc1 |
| 6.5% | O=C(Cn1nc(-c2ccccc2)ccc1=O)NCC1COCCO1 (stereo not drawn) |

(cont.)
SMILES	VDR inh
CC(C)[C@H](NC(=O)c1ccccc1F)C(=O)OCC(=O)NC1CC1	11.3%
COc1ccc(C2c3[nH]c4ccccc4c3CCN2CCCn2cccn2)cc1C (stereo not drawn)	-15.7%
O=C(CN1CCN(C(=O)c2ccco2)CC1)Nc1ccc(Cl)c(S(=O)(=O)N2CCOCC2)c1	-7.3%
COc1cc(-c2nc3cnccn3c2Nc2ccc(C(C)C)cc2)ccc1O	-6.3%&-15.5%
Fc1ccc(NCc2nc3ccccc3n2CCOc2ccccc2Cl)cc1	3.3%
CC1=C(C#N)CCC(=O)N1Cc1c(C)cc(C)cc1C	-3.6%
O=C(O)CCN1C(=O)c2ccccc2Sc2ncccc21	-13.3%
CC(C)(C)S(=O)(=O)N1Cc2ccc(CO)cc2[C@H]1CCO	-16.0%
CC(=O)Nc1ccc(C)cc1-c1nc2ccccc2n(CC(=O)Nc2cc(Cl)ccc2C)c1=O	2.6%
O=C(CSC1=NS(=O)(=O)c2cc(Cl)ccc2N1)NCCc1ccccc1	-2.4%
CC(C(=O)Nc1ccccc1)N(C)CCOc1ccc(Br)cc1 (stereo not drawn)	5.9%
COC(=O)Nc1ccc(S(=O)(=O)Nc2cnc3ccccc3n2)cc1	3.8%
CCN(Cc1ccccc1)C(=O)c1ccc(SC)cc1OC	-0.4%
Cn1c(CN2CCOCC2)nnc1SCC(=O)Nc1ccc2c(c1)OCCO2	6.9%
COc1ccc2oc(C(=O)Nc3ccc(C)cn3)c(C)c2c1	-4.6%
CCn1c(CC(=O)Nc2ccccc2Cl)nnc1SCC(=O)NC1CCCC1	4.4%
COc1ccc(C(=O)/C=C/c2ccc(F)cc2)c(OC(=O)c2ccc([N+](=O)[O-])cc2)c1	-6.0%
C=CCn1c(SC(C)C(=O)NCC2CCCO2)nnc1-c1ccc(OC)cc1 (stereo not drawn)	-14.8%
CCOC(=O)c1cnc(SC)nc1Oc1cccc(NC(=O)c2ccc(C)cc2)c1	-1.1%
COc1cc(/C=N/n2c(-c3ccccc3)n[nH]c2=S)cc(OC)c1OC	-5.7%
CN(C)C(=O)NC1C=CS(=O)(=O)C1 (stereo not drawn)	-8.0%
O=C(CN(CCCN1CCOCC1)C(=O)Cn1nnc(-c2ccc(F)cc2)n1)NC1CCCCC1	14.9%
CCOc1ccc(N(CC(=O)N/N=C/c2ccccn2)S(=O)(=O)c2ccc(Cl)cc2)cc1	-4.8%
CCOC(=O)c1c(NC(=O)CNC2CCCCC2)sc(C)c1C	33.4%[activator]
Cc1ccc(CCNC(=O)c2ccc(CS(=O)(=O)Cc3ccc(Cl)cc3)o2)cc1	6.2%
NC(=S)N=Nc1c(O)[nH]c2ccc(F)cc12	1.3%
COc1ccc(-c2oc(=O)c3cc(OC)c(OC)cc3c2/C=C/c2ccc(F)cc2)cc1	-8.0%
CCCn1cc(S(=O)(=O)c2ccc(OCC)cc2)c(=O)c2cc(C)ccc21	2.4%
Cc1ccc(NC(=O)CN(C)C(=O)COc2ccccc2-c2ccccc2)cc1	-0.5%
COC(C(=O)Nc1ccccc1C(=O)N1CCOCC1)c1ccccc1 (stereo not drawn)	-1.9%
CCCC(O)(c1ccc(CC)cc1)C(CN1CCOCC1)c1ccccc1 (stereo not drawn)	-4.7%
CSc1nc2c(c(=O)[nH]1)C(c1ccc(Cl)cc1)CC(=O)N2 (stereo not drawn)	1.5%
C#CCOCCOCCOCCNc1nc(N2CCN(C(=O)[C@H](CCCN=C(N)N)n3cc(C(N)[C@@H](C)CC)nn3)CC2)nc(N2CCN(C(=O)[C@H](CC(N)=O)n3cc([C@@H](N)C(C)C)nn3)CC2)n1 (stereo partly drawn)	0.0%
CCCn1nc(C(=O)NNC(=O)CCCOc2ccc(C)cc2)c2ccccc2c1=O	-3.7%
CCN(c1cccc(C)c1)S(=O)(=O)c1cnc[nH]1	-0.6%
CC(C)NC(=O)N1CCCC2(CCN(S(=O)(=O)c3ccccc3)CC2)C1	5.3%
C=CCn1c(SCC(=O)Nc2ccc3c(c2)OCCO3)nnc1-c1ccco1	-4.8%
Cc1c(C(=O)NC(=S)N(Cc2ccccc2)c2ccccn2)cccc1[N+](=O)[O-]	-23.6%
COc1ccc(NC(=O)C2(c3cccs3)CCOCC2)cc1	8.8%
O=C(N/N=C/c1ccc2c(c1)OCO2)C(=O)Nc1cccc(Cl)c1	13.8%
O=C1CN(C(=O)CSc2nnnn2-c2ccc(Cl)cc2)c2ccccc2N1	10.7%
COc1ccc(OC)c(NC(=O)COC(=O)CSc2ccc(Cl)cc2)c1	3.5%
CCOCC(=O)Nc1ccc([N+](=O)[O-])cc1OC	-1.9%
O=C(CO/N=C/c1ccc(Cl)cc1Cl)NNC(=O)c1ccc(Cl)cc1Cl	-18.9%
O=C(O)CCN=CC1=C(O)CC(c2ccccc2)CC1=O (stereo not drawn)	4.5%
Brc1ccc(/C=N/Nc2ccccn2)cc1	5.9%
COc1ccccc1CNC(=O)CN1C(=O)c2cccc(N)c2C1=O	6.9%
CN(C(=O)CCOc1ccccc1)c1c(N)n(Cc2ccccc2)c(=O)[nH]c1=O	0.0%
CCN(CC)c1ccc(C(=O)NC(=S)N2CCN(Cc3ccc4c(c3)OCO4)CC2)cc1	16.4%
CCOC(=O)c1cnc2c(C)cc(C)cc2c1NCCN1CCOCC1	5.2%
CC(C)c1cc(-c2cc(C(=O)Nc3ccccc3)on2)nc(NC2CCCC2)n1	-4.1%
COC(=O)c1ccc(NC(=O)CN2C(=O)CNC2=O)cc1	6.4%
O=C(O)CN1C(=O)/C(=C/c2ccccc2Br)Oc2ccccc21	0.1%
O=C(CN(C(=O)CCC(=O)Nc1ccccn1)C1CCCC1)NCc1ccccc1	14.8%
CCC(=O)Oc1ccc2oc(=O)cc(C)c2c1	-11.7%
O=c1c2cc3c(=O)n(-c4ccccc4O)c(=O)c3cc2c(=O)n1-c1ccccc1O	7.7%
O=C(Oc1ccccc1C(=S)N1CCOCC1)c1ccccc1	-2.5%
COc1ccc(CSc2nnc(Cc3sc(-c4ccccc4)nc3-c3ccccc3)o2)cc1	-3.7%
Cc1ccc(C(C(=O)NCc2ccco2)N(C(=O)CNC(=O)c2cccs2)c2ccc(C)cc2)cc1 (stereo not drawn)	1.4%
Cc1ccc(Cl)cc1N1CCN(c2ncnc3onc(C)c23)CC1	9.3%
COc1ccc(C(=O)NC(=S)Nc2nnn(C)n2)cc1	-2.8%
CCCCS(=O)(=O)N1CCCC(C(=O)Nc2ccc(Cl)cn2)C1 (stereo not drawn)	-15.1%
